Compound activity as filed in PubChem.
NPYLR7 agonist – mosquito NPYLR7 agonism | HEK293T NPYLR7/Galpha15, GCaMP6s calcium fluorescence | activation, % at 10 µM | 0.15% of 270,000 active; in the data active = activation above about 40%;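 note: 0% = vehicle and 100% = reference agonist at the receptor; some compounds past the cut are filed as inactive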
NPYLR7 agonist max-min – second read-out of NPYLR7 agonist, no call of its own (marks repeat the call); activation, %; measured here: Max-Min RFU normalised activation; some inactives read as strong as hits;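 span of the calcium signal over five minutes; 0% = vehicle and 100% = native peptide agonist; compound fluorescence can raise it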
Starred values were filed as active, the others as inactive; & = joins results of further samples. This is a subset. The share of hits here may be higher or lower than overall.

The opening 5 compounds, ahead of the listing:
SMILES	NPYLR7 agonist	NPYLR7 agonist max-min
CCC(c1ccccc1)C1CCCN1C(=O)CN1C(=O)NC(C)(c2ccc(F)cc2)C1=O (centres undefined)	4	3
CCC1CN(CC(=O)N2CCN(CC(=O)N(C)C)CC2)Cc2ccc(Cl)cc2O1 (centres undefined)	2	2
CCS(=O)(=O)N1N=C(c2ccc(NS(C)(=O)=O)cc2)CC1c1c(F)cccc1Cl (centres undefined)	9	14
COc1ccc(C(=O)C2CCCN(Cc3cccc(SC)c3)C2)cc1OC (centres undefined)	15	8
Fc1ccc(Cn2cccc2CN(Cc2ccc(F)c(F)c2)C2CCCCC2)cc1	24	24

The listing, from the first entry:
SMILES	NPYLR7 agonist	NPYLR7 agonist max-min
CCC(c1ccccc1)C1CCCN1C(=O)CN1C(=O)NC(C)(c2ccc(F)cc2)C1=O (centres undefined)	4	3
CCC1CN(CC(=O)N2CCN(CC(=O)N(C)C)CC2)Cc2ccc(Cl)cc2O1 (centres undefined)	2	2
CCS(=O)(=O)N1N=C(c2ccc(NS(C)(=O)=O)cc2)CC1c1c(F)cccc1Cl (centres undefined)	9	14
COc1ccc(C(=O)C2CCCN(Cc3cccc(SC)c3)C2)cc1OC (centres undefined)	15	8
Fc1ccc(Cn2cccc2CN(Cc2ccc(F)c(F)c2)C2CCCCC2)cc1	24	24
CCn1cc(S(=O)(=O)N[C@@H]2CC[C@@H](N)C2)cn1	6	5
CCCCCCCC(=O)N(CCC)CC(=O)N(Cc1ccccc1)Cc1ccco1	-5	-1
Cc1oc(-c2cc3c(cc2Cl)OCO3)nc1CN1CCC(OCc2ccccc2)CC1	9	1
CO[C@@H]1C[C@H]2C(=O)N3CC[C@H](NC(=O)c4cccc(F)c4)C[C@H]3C(=O)N2C1	-8	-14
COc1ccc2oc(C(C)NC(=O)/C=C/c3cnn(C)c3)c(C)c2c1 (centres undefined)	2	0
O=C(c1ccc(C(F)(F)F)cc1)N1CCN(c2ccc(-n3cccn3)nn2)CC1	-1	-4
COC(=O)C1CCCCN1Cc1nc(Nc2ccccc2)c2ccccc2n1 (centres undefined)	22	13
CN1CCN(N=Cc2ccc(Br)cc2)CC1	6	2
CNc1oc(-c2ccc(COc3ccc(OC)cc3)o2)nc1C#N	2	9
CCOC(=O)C1=C(CC)NC2=C(C(=O)CC(C)(C)C2)C1c1ccc2c(c1)OCO2 (centres undefined)	-4	-10
CCc1ccc(C(=O)NC2CCN(c3ccccc3C(=O)N3CCN(C)CC3)CC2)cc1	24	22
COc1cc(NC(=O)CCN2C(=O)c3ccccc3C2=O)c(OC)cc1Cl	4	-2
CCN1CCN(c2ccc(Cl)cc2NS(=O)(=O)c2ccccc2Br)CC1	-1	-3
CC(C)CNC(=O)C1(C)CCCN1C(=O)c1cccnc1 (centres undefined)	0	-2
O=C(CNC(=O)C1CCCCC1)NCc1ccco1	21	6
O=c1ccn(C2CC2)c(SCc2cn3ccccc3n2)n1	8	7
O=C1OC(/C=C/c2cccc(Cl)c2Cl)=NC/1=C\C=C\c1ccccc1	-3	-6
Cc1[nH]c2c(c1C(=O)NCc1cccnc1N1CCN(C)CC1)C(=O)CCC2	3	1
N#CC[C@@H](C1CCCC1)n1cc(-c2ncnc3[nH]ccc23)cn1	-5	-8
CC1(Cc2ccc(S(C)(=O)=O)cc2)C(=O)Nc2ccc(-c3cccc(C(F)(F)F)c3)cc21 (centres undefined)	3	0
Cc1cc(N2CC(C)OC(C)C2)ncn1 (centres undefined)	-5	-14
CCc1nn(-c2ccc(F)cc2)c(N2CCN(C(C)C)CC2)c1CN(CC(C)C)C(=O)c1cc(C(F)(F)F)cc(C(F)(F)F)c1	12	17
Cn1c2c(c3ccccc31)C[C@@H]1C[C@H]2[C@@H](O)CN1CC1CCN(Cc2ccccc2)CC1	26	33
CCOC(=O)c1ccc2c(c1)nc(SCc1cc(Cl)ccc1F)n2CCc1ccc(OC)cc1	3	-1
O=C(NC1CCCC1)c1ccc(OC2CCN(C(=O)Cn3cccn3)CC2)c(Cl)c1	-9	-11
CCc1nnsc1C(=O)N1C[C@H]2CC=CC[C@H]2C1	-6	-5
CCN(CC)C(=O)c1cc(NC(=O)c2ccc([N+](=O)[O-])cc2Cl)ccc1N1CCN(c2ccccc2OC)CC1	20	28
COc1ccc(N2C(=O)CN(C(=O)c3cccc(-n4cccn4)c3)CC2(C)C)cc1	6	2
COc1ccccc1-n1c(Cc2ccccc2)nnc1SCC(=O)N1CCC(C)CC1	-1	8
CN(C)S(=O)(=O)CCn1cnnc1	17	7
Cn1c(=O)c2c(nc(CN3CCOCC3)n2Cc2ccccc2)n(C)c1=O	7	3
CC(O)=CP(=O)(c1ccccc1)c1ccccc1	2	0
O=C(c1ccc(Cl)cc1Cl)N1CCSC12CCNCC2	-10	-6
O=C(Nc1cccc(N2CCCC2=O)c1)C1CC(=O)N(Cc2ccccc2Cl)C1 (centres undefined)	4	1
COCCNCc1csc(COc2cc(C)cc(C)c2C)n1	13	20

Entries listed so far containing an NH in an aromatic ring (2):
SMILES	NPYLR7 agonist	NPYLR7 agonist max-min
Cc1[nH]c2c(c1C(=O)NCc1cccnc1N1CCN(C)CC1)C(=O)CCC2	3	1
N#CC[C@@H](C1CCCC1)n1cc(-c2ncnc3[nH]ccc23)cn1	-5	-8

Continuation:
SMILES	NPYLR7 agonist	NPYLR7 agonist max-min
Cc1ccccc1C(=O)NC1CCN(c2ccccc2C(=O)NCc2cccc(C(F)(F)F)c2)CC1	19	26
O=C(CN1CN(c2ccccc2)C2(CCN(C(=O)C34CC5CC(CC(C5)C3)C4)CC2)C1=O)N1CCCC1	41	33
CC1CCN(C(=O)COC(=O)CC23CC4CC(CC(Br)(C4)C2)C3)CC1	4	3
COc1ccc(C(c2c(O)cc(C)[nH]c2=O)c2c(O)cc(C)[nH]c2=O)cc1OC	6	11
CCOc1ccc2cc(-c3csc(Nc4ccccc4)n3)c(=O)oc2c1	-3	-4
Cc1cc(I)ccc1NC1=C(Cl)C(=O)N(Cc2ccccc2)C1=O	-2	-9
CN(Cc1c(F)cccc1Cl)C(=O)c1ccccc1O	0	0
Cc1cccc(-c2n[nH]c(=S)n2-c2cccc(C)c2)c1	-11	-6
CN1C(=O)N(CC(=O)N2CC=C(c3ccccc3)CC2)C(=O)C12CCCCC2	1	0
O=C(c1ccn[nH]1)N1CCSC2(CCCCC2)C1	-2	26
COC(=O)c1ccc(C=Nn2c(-c3ccc(Cl)cc3)n[nH]c2=S)cc1	1	-3
O=C(Nc1ccc2c(c1)CN(S(=O)(=O)N1CCCCC1)CC2)C1CCCO1 (centres undefined)	12&3	5&-4
O=C(O)C1C2CCC(C2)C1C(=O)NCC1CCCO1 (centres undefined)	3	2
Nc1cc(-c2nc3ncccc3o2)ccc1Cl	-1&-1	-2&-6
CN1CCc2cc(O)c(O)cc2C(c2ccccc2)C1 (centres undefined)	4	-39
CCc1nc2ccc(C(=O)NCCCN(C)C)cn2c1N(C)Cc1ccc(NC(C)=O)cc1	6	-10
CCCNC(=O)CNc1nc(C)nc2sc(C(=O)OCC)c(C)c12	-7	-7
CN(Cc1nc(Cc2ccccc2)no1)CC1(N2CCCCC2)CCCCC1	12	2
O=C(NC1CCC(NC(=O)[C@H]2CCCN2C(=O)c2cccc(F)c2)CC1)c1ccccc1 (some centres undefined)	1	12
CCc1noc(CN2CCCN(CC3CC3)C(C(C)C)C2)n1 (centres undefined)	5	-1
O=C(CCNc1ncnc2sccc12)N1CCCC1	4	1
Cc1cc(C(=O)Cn2cc(C(F)(F)F)ccc2=O)c(C)n1C	-1	6
O=C(c1cccc([N+](=O)[O-])c1)N1CCCN(c2nc(Cc3ccc(F)cc3)ns2)CC1	-5	-8
COc1ccc2c(c1)CN(Cc1ccco1)C(=O)CCN2	3	7
Cc1cc(C)cc(S(=O)(=O)Nc2ccc(-c3ccc(N4CCN(C)CC4)nn3)cc2)c1	-10	-11
Cc1cccc(Oc2coc3cc(OCC(O)Cn4nc(C)cc4C)ccc3c2=O)c1 (centres undefined)	0	10
C=CCN(Cc1csc(COc2cc(C)cc(C)c2C)n1)C(=O)Cc1ccccc1	-8	7
COc1ccc2c(ccn2CC(=O)NC2CCCC2OC)c1 (centres undefined)	-3	-5
COc1ccc(C2=NC(CC(=O)N3CCc4ccccc4C3c3ccc(Cl)cc3)C(C)O2)cc1 (centres undefined)	1	10
FC(F)(F)c1cc(Cl)c2n[nH]c(=S)n2c1	10	7
Cc1nn2cc(Cn3ccnc3-c3cc(C)c(C)o3)nc2s1	5	0
COC(=O)C1(C(F)(F)F)N=C2C=CC=CN2C(c2ccc(F)cc2)=N1 (centres undefined)	-1	-3
CS(=O)(=O)N1CCCC(CNC(=O)c2cccc3ccnn23)C1 (centres undefined)	4	3
Cc1ccccc1-c1noc(CSCC(=O)Nc2ccccc2C#N)n1	10	5
O=c1[nH]c(SCc2cccc(F)c2)nc2c1cnn2CCO	5	4
Cc1ccccc1CN1C[C@@H]2C[C@@H](c3nc(C(C)C)cs3)N3CCC[C@@]23C1=O	4	4
Cc1cc(C)n(C(=O)CCCCCCC(=O)n2nc(C)cc2C)n1	-1	0
O=C(NC1CCS(=O)(=O)CC1)C1CC1c1ccc(Cl)cc1 (centres undefined)	10	7
COCCn1c(C)cc(O)c(C(c2ccncc2)N2CCN(c3ccccc3F)CC2)c1=O (centres undefined)	7	5
CCCc1ccc(NC(=O)CNC(=O)c2ccccc2OC)cc1	4	4
CCN(CC)C(=O)Cn1cnc2c(nnn2CC)c1=O	0	21
NC(=O)CN(CCCO)Cc1ccc(Cl)c(Cl)c1	6	4
CSc1ccccc1NC(=O)Cn1nc(C(F)(F)F)cc1C	0	-4
CCN1C(=O)N(CCN(C)C)C(=O)C12CCN(Cc1ccc(C#CC(C)(C)O)cc1)CC2	9	-4
CC1=C(CCN2CCNC(C(=O)NC3CC3)C2)C(C)(C)CCC1 (centres undefined)	12	2
Cc1nn(S(=O)(=O)c2ccc(C(C)C)cc2)c(C)c1S(=O)(=O)N1CCCC1	6	6
CCn1c(C2CCCN(C(=O)c3sc(OC)nc3C)C2)nn(C)c1=O (centres undefined)	21	8
O=C(NCc1cccc(F)c1)c1csc(COc2cc(Cl)ccc2Cl)n1	3	10
O=c1c(N=Nc2nccs2)c(-c2ccccc2)[nH]n1-c1ccc([N+](=O)[O-])cc1	-6	-11
CCn1nc(C)c(CN2CCCC(CNS(=O)(=O)c3ccc(OC)cc3)C2)c1C (centres undefined)	2&-6	-2&-5
COc1ccc(-c2cnc(-c3ccc(CNC(=O)c4cc(Cl)ccc4F)cc3)[nH]2)cc1	-5	-9
CCCc1nn(-c2cccc(C)c2)c(CCC)c1C(=O)NCc1ccccn1	6	16
CN(CCNC(=O)C(=O)Nc1cccc2cnccc12)C1CCCC1	0	31
COC(=O)c1ccc(CC2(C)C(=O)Nc3cc(-c4ccc(F)cc4F)ccc32)o1 (centres undefined)	4	4
COc1ccc(S(=O)(=O)Oc2ccc(CN(Cc3ccco3)C(=O)Nc3ccccc3OC)cc2)cc1	3	7
COc1cc(-c2c(NC(=O)c3ccco3)oc3c(C)cccc3c2=O)cc(OC)c1OC	5	1
CCN(CC)S(=O)(=O)c1cc(C)c(C)c(NC(=O)Cc2c(C)noc2C)c1	1	0

Molecules shown so far that have an aryl thioether with sulfur outside any ring:
SMILES	NPYLR7 agonist	NPYLR7 agonist max-min
COc1ccc(C(=O)C2CCCN(Cc3cccc(SC)c3)C2)cc1OC (centres undefined)	15	8
O=c1ccn(C2CC2)c(SCc2cn3ccccc3n2)n1	8	7
CCOC(=O)c1ccc2c(c1)nc(SCc1cc(Cl)ccc1F)n2CCc1ccc(OC)cc1	3	-1
COc1ccccc1-n1c(Cc2ccccc2)nnc1SCC(=O)N1CCC(C)CC1	-1	8
O=c1[nH]c(SCc2cccc(F)c2)nc2c1cnn2CCO	5	4
CSc1ccccc1NC(=O)Cn1nc(C(F)(F)F)cc1C	0	-4
